Screening data as filed in PubChem BioAssay.
Rango dissoc inh = inhibition of RanGTP-driven Rango-importin beta dissociation; Potency, µM (highest dose often 46.1 µM), for inactives: at the highest dose activity change, negative = inhibition; Biochemical FRET Rango-importin beta, RanGTP-induced dissociation; AID 540253; O95149+P62826; 340,000 compounds, 0.071% hits; active means falling FRET ratio curve, often poorly fitted, with flat reads before Ran was added; inconclusive means other falling curves, or compound fluorescence or quenching; inactive means flat or rising ratio curve;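 further: potency means the concentration at half of the fitted maximal effect; % of control where 0% means no effect; nearly all actives have a fitted effect of over 45% in size; -100% = wells without RanGTP and RCC1; the record marks most hits as doubtful in a second field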
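Rango/importin beta premix (0.1/0.25 uM final), PBS + 1 mM DTT + 0.02% Tween-20 + 0.1% BSA; cpd 5 min RT; FRET pre-read; + RanGTP-RCC1 (0.6 uM Ran, 2 mM GTP, 0.2 uM RCC1); 45 min RT; FRET post-read, ex 430, em 486/530 nm.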
miR-21 FLuc = raises the signal of a miR-21 reporter; HeLa miR-21 FLuc reporter, luciferase, 48 h; Potency, µM (top dose mostly 38.3 µM), for inactives: at the highest dose reporter change, positive = more light; 340,000 tested, under 10 active; AID 2288; active = well fitted rising curve with a large enough effect; inconclusive = small, poorly fitted or top-dose-only effect; inactive = no such curve, though single readings can be large or run the other way;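 further: % of control where 0% means no effect; miR-21 action dims this reporter so a rising signal means less miR-21 action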
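HeLa cells endogenously expressing miR-21, stably carrying CMV-driven firefly luciferase with a downstream miR-21 binding site, 2000 cells/well. Titrations up to approximately 40 uM, 48 hours; luciferase luminescence read.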
Rango-impB inh = Rango-importin beta binding inhibition | Potency, µM (titrated, usually from 92.2 µM), for the others: at the top dose inhibition of complex formation | Q14974 | Rango CFP/YFP FRET sensor + importin beta, 45 min | AID 540263 | 340,000 compounds, 0.031% hits; active = rising FRET ratio curve, often small or poorly fitted; inconclusive = mostly compound fluorescence or quenching in the first reads; inactive = flat curves in all reads;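 further: potency means the concentration at half of the fitted maximal effect; 0% = DMSO wells and 100% = buffer wells lacking importin beta; nearly all actives have a fitted effect of over 15% in size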
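FRET biosensor Rango (snurportin 1 IBB between N-terminal EYFP and C-terminal Cerulean), 50 nM in PBS/1 mM DTT/0.02% Tween-20/0.1% BSA, preincubated 5 min RT with compound; 0.125 microM importin beta added, 45 min RT, CFP/YFP FRET ratio read.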
GLA inh pH 4.5 = inhibitors of human alpha-galactosidase A at pH 4.5; AID 1467; purified enzyme, 4-MU-alpha-Gal fluorescence, pH 4.5; P06280; activity change, negative = inhibition, % at 105 µM; 230,000 tested, under 10 active; inconclusive = small, poorly fitted or top-dose-only inhibition, or a rising curve; inactive = flat fitted curve, though single readings scatter; no compound was filed as active;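 further: 0% = full activity with enzyme and -100% = basal without enzyme; dose as in the result columns while the protocol names 77 µM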
Target sequence (P06280 whole entry, looked up): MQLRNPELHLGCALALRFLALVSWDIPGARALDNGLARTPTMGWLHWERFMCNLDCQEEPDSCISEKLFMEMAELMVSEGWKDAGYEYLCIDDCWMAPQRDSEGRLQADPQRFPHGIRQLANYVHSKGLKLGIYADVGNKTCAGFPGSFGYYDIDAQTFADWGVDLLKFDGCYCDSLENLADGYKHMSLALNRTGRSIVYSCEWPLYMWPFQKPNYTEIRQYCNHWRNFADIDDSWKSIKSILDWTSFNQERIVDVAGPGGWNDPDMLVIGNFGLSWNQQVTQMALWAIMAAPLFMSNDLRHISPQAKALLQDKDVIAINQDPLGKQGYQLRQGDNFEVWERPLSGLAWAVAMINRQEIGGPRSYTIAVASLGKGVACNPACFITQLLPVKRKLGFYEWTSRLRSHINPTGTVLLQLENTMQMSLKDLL
Numbers without * were called inactive; ? = inconclusive; nt = no result given; & = joins results of further samples; [ ] = remark or other dose.

SMILES	Rango dissoc inh	miR-21 FLuc	Rango-impB inh	GLA inh pH 4.5
Cc1cc(C)c(Cn2c(=O)n(CCCC(=O)NCc3ccco3)c(=O)c3sccc32)c(C)c1	23%	-3%	-0.5%	4
COc1cc(/C=C/c2[nH]c(=O)[nH]c(=O)c2[N+](=O)[O-])ccc1OCCC(C)C	-12%	-1%	?	-3
CCN(CC)S(=O)(=O)c1ccc(C(=O)Nc2ccc(Cc3ccncc3)cc2)cc1	10%	?	2.4%	-3
O=C(C[n+]1ccc2ccccc2c1)c1ccccc1	-23%	-43%	?	-7
C#CC[N+](C)(C)CCCCCCCCCC	3%	?	-0.8%	5
CCCCc1nnc(NC(=O)C(C)Sc2nc(C)cc(=O)[nH]2)s1 (stereo not drawn)	-10%	-5%	8.2%	0
CCOCCCNS(=O)(=O)c1ccc(NC(=O)c2ccc(OC)c([N+](=O)[O-])c2)cc1	1%	2%	-0.7%	7
CCOC(=O)C1=C(C)NC(=O)NC1c1cn(-c2ccccc2)nc1-c1cccs1 (stereo not drawn)	19%	-2%	-1.0%	-4
Cc1cccc(Cn2nc(C)cc2NC(=O)CCCn2ccc([N+](=O)[O-])n2)c1	-8%	-1%	1.4%	-14[21.1 µM]
COc1ccc(OC)c(-n2nnnc2SCC(=O)NCc2ccc3c(c2)OCO3)c1	-4%	3%	1.4%	4
CCCC(=O)Nc1nnc(SCC)s1	23%	-27%	-0.9%	-1
COc1ccc(C(O)Cn2c(=N)n(CCCN(C)C)c3ccccc32)cc1 (stereo not drawn)	3%	-7%	1.6%	4
Cn1ncc(C#N)c1NC(=O)C1CC(c2ccccc2Cl)=NO1 (stereo not drawn)	-18%	7%	-2.7%	-1
CC1=NN(c2ccccc2)C(=O)/C1=C\C=C1/N(C)c2ccccc2C1(C)C	52%	3%	?	-12
Cc1ccn2c(=O)nc(SCC(=O)N3CCCC3)nc2c1	-7%	nt	?	nt
COc1ccc(CCNC(=O)c2cnc3ccccn3c2=O)cc1	-2%	-31%	6.2%	3
COc1ccc(-c2ncnc(C(F)(F)F)c2-c2csc(C)n2)c(O)c1	0%	4%	0.6%	0
COc1cc(NC(=O)C2CCCN(c3ncnc4c3nc3n4CCCCC3)C2)cc(OC)c1OC (stereo not drawn)	12%	0%	0.8%	nt
COc1cccc(CN2CCN(C(=O)c3cccc4ccccc34)CC2)c1	-12%	0%	0.0%	nt
COc1cccc(CNC(=O)CN2C(=O)CSc3ccc(S(=O)(=O)N4CCCC4)cc32)c1	-1%	-1%&0%	-1.3%	-2[21.1 µM]
Nc1ccc(Br)cc1Br	22%	0%	10%	5
CCCOc1ccc(-c2csc(N)n2)cc1[N+](=O)[O-]	10%	-75%	-1.6%	7
Cc1ccc(Cl)c(OCC(=O)NCc2ccco2)c1	8%	-29%	-0.6%	-3
COc1cc(C#Cc2c(-c3cncn3C)n(C)c3ccc(Br)cc23)cc(OC)c1	-19%	nt	-0.4%	nt
COc1ccc(N2C(=O)C(CC(N)=O)N(NC(=O)CCc3ccccc3)C2=O)cc1 (stereo not drawn)	-5%	-9%	-2.1%	3
COc1ccc(Cl)cc1NC(=O)C(C)Sc1nnc(C2CC2)n1C1CC1 (stereo not drawn)	-4%	nt	0.7%	nt
C=CCNC(=O)c1onc(CSc2ccccc2)c1C(=O)NCC=C	-7%	nt	-0.6%	nt
CN1CCN(c2ccc(CNS(=O)(=O)c3ccccc3)cc2)CC1	0%	2%	-1.4%	-3
COc1ccc(NC(=O)CN2C(=O)C(C)SC(C)C2=O)c(OC)c1 (stereo not drawn)	-8%	5%	4.4%	-2
O=C(CCCC(=O)n1cnc2ccccc21)n1cnc2ccccc21	4%	-4%	-1.7%	1
O=C1Cc2ccccc2C(=O)N1Cc1ccccc1	4%	-2%	0.4%	4
Cc1cc(C)nc(NC2=NCC(=O)N2c2ccc3c(c2)OCCO3)n1	12%	-11%	-0.1%	-17
COc1ccc(/C=C(\C#N)C(=O)N2CCOCC2)cc1Br	-4%	-4%	2.4%	-10
COc1cccc(OCC(O)CN2CCN(c3ccc(Cl)cc3)CC2)c1 (stereo not drawn)	0%	1%	5.2%	3
O=C(COc1ccccc1/C=C1\SC(=O)NC1=O)Nc1ccccc1	7%	-12%	1.2%	2
CCOC(=O)C1CCCN(Cc2ccc(OCc3ccccc3)cc2)C1 (stereo not drawn)	10%	0%	0.5%	nt
COCCn1c(SCC(=O)Nc2cc(C)on2)nc2c(c1=O)SCC2	-14%	-5%	-1.2%	nt
CCOc1ccc(S(=O)(=O)N2CCN(C(=O)c3ccc(Cl)c(S(=O)(=O)N4CCOCC4)c3)CC2)cc1	?	nt	1.9%	nt
Cc1cc(NC(=O)CN(C)C)c([N+](=O)[O-])cc1C	18%	-7%	-5.5%	13
O=[N+]([O-])c1cccc(C=NN=C2c3ccccc3-c3ccccc32)c1	5%	nt	4.0%	nt
CN(Cc1ccccc1F)Cc1cc(=O)oc2cc(O)c(Cl)cc12	?	-12%	?	nt
CCCCC1CCC(C(=O)N(CC(C)C)c2c(N)n(Cc3ccccc3)c(=O)[nH]c2=O)CC1 (stereo not drawn)	-10%	nt	-0.5%	nt
O=C(NCCc1csc(-c2cccc(F)c2)n1)c1ccco1	13%	-7%&-6%	-0.8%	nt
Cc1ccc(C)c(NC(=O)CN(C)C(=O)c2cc(-c3cccs3)nn2-c2ccccc2)c1	11%	0%	-5.4%	nt
Cc1ccc(C(=O)COC(=O)CNC(=O)c2ccco2)cc1	7%	-3%	-1.0%	1
Cc1ccccc1SCCNC(=O)c1ccccc1Br	30%	-64%	3.6%	-3
CC(NC(=O)CSc1nnnn1C1CC1)c1ccccc1Br (stereo not drawn)	?	nt	5.9%	nt
O=C(Nc1ccc(S(=O)(=O)N2CCCC2)cc1)c1cccs1	21%	-3%	1.2%	0
S=c1[nH]nc(-c2ccco2)n1/N=C/c1ccc(Cl)c(Cl)c1	-7%	1%	2.7%	-4
O=[N+]([O-])c1ccc(OCCCCN2CCc3ccccc3C2)cc1	4%	1%	0.3%	nt
Cc1c(C=Nc2ccc(S(=O)(=O)N(C)C)cc2)c(O)[nH]c(=O)c1C#N	4%	nt	-0.5%	nt
CN1CCN(S(=O)(=O)c2cccc(C(=O)N(Cc3nnc(-c4ccccc4Cl)o3)C3CC3)c2)CC1	1%	-11%	1.1%	nt
CCOC(=O)c1c(NC(=O)CC(C)C)sc(C(C)=O)c1C	7%	-8%	-0.3%	-5
Cc1cc(C)c2c3c(sc2n1)C(=O)N(C)CC(=O)N3	?	-2%	-4.0%	10
COCCn1c(SCc2ccc(F)cc2)nc2c1c(=O)[nH]c(=O)n2C	17%	-19%	1.0%	nt
Cc1cc(C)cc(-n2c(C)cc(/C=N/NC(=O)CN(c3c(C)cccc3C)S(C)(=O)=O)c2C)c1	1%	-9%	1.2%	-4
CN(C)S(=O)(=O)c1cccc(NC(=O)CCCc2nc3ccccc3c(=O)[nH]2)c1	10%	nt	-1.8%	nt
CCCOc1ccc(NC(=O)C2CCCNC2=O)cc1 (stereo not drawn)	1%	-20%	0.0%	-6
Cc1ccc(Cn2c(C3CCCN3c3nc(C)cs3)nc3cc(C(F)(F)F)ccc32)cc1 (stereo not drawn)	-18%	16%	-0.2%	nt
COc1cc(CN2CCCCCC2)c([N+](=O)[O-])cc1OC	1%	-1%	-2.0%	nt

More results
SMILES	Rango dissoc inh	miR-21 FLuc	Rango-impB inh	GLA inh pH 4.5
Cc1c(C)c2c(OCC(=O)Nc3ccc(CCO)cc3)cc3c(c2oc1=O)CCC(C)(C)O3	1%	1%	-1.2%	nt
Cc1cc(S(=O)(=O)NC2CCCC2)ccc1-n1cnnn1	1%	-3%	-1.1%	nt
CCOC(=S)SCC(=O)Nc1nccs1	-12%	5%	-0.9%	4
COc1ccccc1NC(=O)C1CCCN(S(=O)(=O)c2ccc(-n3cnnn3)cc2)C1 (stereo not drawn)	-16%	9%	-0.6%	nt
CCOc1ccc(NC(=O)C2CCCN(c3cnccn3)C2)cc1 (stereo not drawn)	?	-9%&-4%	-1.5%	nt
Cc1c(Cl)c([N+](=O)[O-])nn1CC(=O)N1CCCc2ccccc21	-17%	-10%	1.6%	-3
O=c1ccnc(SCCc2ccc([N+](=O)[O-])cc2)[nH]1	-12%	nt	2.0%	nt
CCCCCNCC(=O)Nc1cc(C(F)(F)F)ccc1OCCOC	-6%	-4%	2.2%	-11
CCOc1ccc(S(=O)(=O)N2CCCCC2)cc1NC(=O)c1c(CC)noc1C	1%	nt	1.5%	nt
O=C(CN1CCOCC1)NNc1c2ccccc2nc2ccccc12	-9%	-1%	0.7%	11
COc1ccc(NC(=O)CSc2nnc(-c3ccco3)c(-c3ccco3)n2)cc1OC	-22%	-7%	0.3%	nt
O=C(CCc1nnc2n(Cc3ccccc3)c(=O)c3ccccc3n12)NCCCN1CCCCC1	-17%	0%	-12%	nt
O=C(NNc1nc2ccccc2s1)c1ccc(F)cc1	-12%	-6%	-2.7%	1
CNC(=O)c1sc(Nc2cc(C)ccc2C)nc1C	-9%	-3%	0.6%	0
CN(C)S(=O)(=O)c1cccc(C(=O)NC(=S)N(CCC#N)Cc2cccnc2)c1	4%	-10%	5.7%	3
COCCn1c(SCc2nc3cc(OC)c(OC)cc3c(=O)[nH]2)nnc1-c1ccncc1	-13%	0%	1.1%	7
O=[N+]([O-])c1ccc(COc2cccc3cccnc23)cc1	-20%	-55%	9.6%	nt
Cc1cc(NC(=O)COC(=O)c2c(Cl)cccc2Cl)no1	-3%	nt	2.5%	nt
ONC(=Nc1ccc(Cl)cc1)c1ccccc1	12%	-9%	3.2%	-2
CCn1cc(C(=O)NCc2ccco2)c(=O)c2cc(S(=O)(=O)N3CCCCCC3)ccc21	-2%	9%	-0.6%	-12
COc1cccc(/C=N/NC(=O)c2cc3c(OC)cccc3[nH]2)c1OC	-13%	-3%	-2.5%	-4
CCc1nc2ccc(C(=O)NCCCN3CCN(c4ccccc4F)CC3)cc2nc1CC	0%	12%	2.6%	nt
CCn1cc(/C=N\NC(=O)Cc2ccc([N+](=O)[O-])cc2)c(C)n1	0%	-17%	3.3%	1
Cc1ccc(S(=O)(=O)c2nc(-c3ccccc3Cl)oc2NCCCN2CCOCC2)cc1	3%	3%	3.0%	nt
CCOC(=O)C1(Cc2cccc(F)c2)CCN(CC(O)CO)CC1 (stereo not drawn)	7%	0%	-0.2%	1
COc1ccc(C)cc1S(=O)(=O)N(CC(=O)N1CCOCC1)Cc1ccccc1	13%	-2%	-2.2%	1
CCOC(=O)CSc1nnc(CNC(=O)c2ccc(OC)cc2OC)n1C	-13%	-4%	-1.5%	-8
CCOC(CNC(=O)C1CCN(S(=O)(=O)c2ccc3nc4c(c(C(=O)O)c3c2)CC(C)CC4)CC1)OCC (stereo not drawn)	-4%	0%	?	nt
COc1ccc(-c2nnc(SCC#CCO)o2)cc1OC	-7%	-15%	2.2%	1
CCOC(=O)/C=c1\s/c(=C\c2ccc(C)cc2)c(=O)n1CC(=O)NCc1ccco1	24%	-3%	?	0

Not all compounds are listed. The share of hits here may be higher or lower than overall.
